Bioassay records: PubChem, National Center for Advancing Translational Sciences (NCATS)
RE007 growth inh: less growth of the S. pombe RE007 Vpr strain; S. pombe RE007 Vpr strain, BacTiter-Glo ATP luminescence, 24 h; control for the full effect not named in the record; Potency, µM (series often up to 92.2 µM), without a hit: at the top dose activity change, negative = less growth; 360,000 tested, 0.21% active; active = well fitted falling curve with a large enough effect; inconclusive = small, poorly fitted or top-dose-only effect; inactive = no such curve, though single readings can be large or run the other way;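 further: on the % scale 0 is the no-effect control and ±100 the full control effect; nearly all actives have a fitted effect of over 50% in size; the assay follows cell death caused by Vpr and the record does not say whether a fall means rescue or toxicity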
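Fission yeast RE007 carrying one integrated HIV-1 vpr copy, seeded at OD 0.01 in PMG+AL medium with 23 nL pinned compound. Grown 24 h at 30 degrees; viability read by BacTiter-Glo luminescence after 5 min.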
Cruzain inh Det: inhibitors of Trypanosoma cruzi cruzain with detergent; 200,000 tested, 0.43% active; Potency, µM, inactives show max response, negative = inhibition, usual class: inhibitors; purified cruzain, Z-FR-AMC fluorescence, 0.01% Triton; P25779; active means well fitted curve in the direction sought with a large enough effect; inconclusive means small, poorly fitted or top-dose-only effect, or another doubt; inactive means no such curve, though single readings can be large; an effect the other way counts as inactive or inconclusive;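 further: plate controls were neutral wells for no effect and buffer without enzyme for full effect; nearly all actives have a fitted effect of over 40% in size; top concentration of the series not given in the record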
Target sequence (P25779 123-467 limits assumed): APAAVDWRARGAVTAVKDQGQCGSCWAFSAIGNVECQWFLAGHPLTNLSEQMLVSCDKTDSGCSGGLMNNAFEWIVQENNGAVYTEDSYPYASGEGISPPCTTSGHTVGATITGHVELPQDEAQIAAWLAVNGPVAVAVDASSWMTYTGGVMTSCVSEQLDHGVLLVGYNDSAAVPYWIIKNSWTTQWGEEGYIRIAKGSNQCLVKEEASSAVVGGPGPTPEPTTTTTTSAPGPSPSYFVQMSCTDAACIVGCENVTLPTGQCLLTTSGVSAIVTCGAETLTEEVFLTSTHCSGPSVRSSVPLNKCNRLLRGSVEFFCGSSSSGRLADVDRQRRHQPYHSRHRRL
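Detergent-containing arm of a paired screen for aggregation-based inhibition: 0.01% Triton X-100 present. Cruzain at 1.5 nM cleaved 2 uM Z-FR-AMC at pH 5.5 with 5 mM DTT; AMC fluorescence gain over 60 s measured activity.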
SARS PLP yeast: blocks SARS-CoV papain-like protease in a yeast assay; AID 485353; S. cerevisiae expressing SARS-CoV PLpro, growth rescue; control for the full effect not named in the record; Potency, µM (highest dose often 32.9 µM), without a hit: at the top dose activity, positive = growth rescue; 330,000 tested, 0.19% active; further: 0% is about no effect; nearly all actives have a fitted effect of over 55% in size; growth read by luminescence after 48 h
NS1 function inh: influenza NS1 inhibition; S. cerevisiae slowed by influenza A NS1, growth recovery by OD600; Potency, µM (titrated, usually from 46.1 µM), for inactives: top-dose activity, positive = more growth; 270,000 tested, 0.4% active; AID 2326; further: actives are rising curves; nearly all actives have a fitted effect of over 50% in size
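S. cerevisiae expressing influenza A NS1, grown in glucose, washed, then diluted 1:100 into pH 6.0 -URA galactose medium with 23 nl compound. Growth recovery read as OD600; NS1-free strain serves as control.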
Cruzain inh noDet: blocks cruzain activity in detergent-free assay | P25779 | purified cruzain, Z-FR-AMC fluorescence, no detergent | Potency, µM, inactives show max response, negative = inhibition, hits mostly inhibitors | 200,000 tested, 2.3% active; active means well fitted curve in the direction sought with a large enough effect; inconclusive means small, poorly fitted or top-dose-only effect, or another doubt; inactive means no such curve, though single readings can be large; an effect the other way counts as inactive or inconclusive;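 further: plate controls were enzyme without inhibitor for no effect and buffer without enzyme for full effect; nearly all actives have a fitted effect of over 40% in size; top concentration of the series not given in the record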
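Detergent-free condition (0.00005% Triton X-100) in acetate buffer pH 5.5 with DTT. 1.5 nM enzyme and compound were pre-mixed 15 min, then 2 uM Z-FR-AMC substrate added; reaction progress from fluorescence change between first and third reads (60 s).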
MARV entry inh: Marburg virus entry inhibition; Marburg virus pseudotyped entry inhibition, cell reporter; control for the full effect not named in the record; about a third of the inactives were read at about 46 µM; Potency, µM (titrated, usually from 37.8 µM), for inactives: top-dose activity change, negative = inhibition, actives largely listed as inhibitors; 300,000 tested, 1.8% active; active = well fitted inhibition curve with a large enough effect; inconclusive = small, poorly fitted or top-dose-only effect, or effect the other way; inactive = flat fitted curve, though single readings scatter; tested in HEK293 cells; about a fifth of its hits are not listed in these tables; further: on the % scale 0 is the no-effect control and ±100 the full control effect; luciferase read-out
StopGo reporter: FMDV 2A StopGo reporter, luciferase signal. human cells with a luciferase reporter of 2A StopGo recoding; control for the full effect not named in the record. Potency, µM (highest dose often 57.9 µM), for the others: at the highest dose signal change, negative = less light. 410,000 tested, 1.2% active. AID 1159524; active = well fitted falling curve with a large enough effect; inconclusive = small, poorly fitted or top-dose-only effect; inactive = no such curve, though single readings can be large or run the other way; tested in HEK293T cells; further: on the % scale 0 is the no-effect control and ±100 the full control effect; nearly all actives have a fitted effect of over 45% in size; luciferase light after 4 h
LASV entry inh: blocks Lassa virus binding to or entry into cells; 300,000 tested, 1.2% active; Potency, µM (top dose mostly 37.9 µM), for the others: at the highest dose activity change, negative = inhibition, actives largely listed as inhibitors; Lassa virus pseudotype entry inhibition, cell reporter; control for the full effect not named in the record; AID 540256; active means well fitted inhibition curve with a large enough effect; inconclusive means small, poorly fitted or top-dose-only effect, or effect the other way; inactive means flat fitted curve, though single readings scatter; tested in HEK293 cells; further: on the % scale 0 is the no-effect control and ±100 the full control effect; nearly all actives have a fitted effect of over 50% in size; luciferase read-out
The depositor's hits bear a star; ? = inconclusive; nt = not tested or not shown; & = joins results of further samples; [ ] = dose if it differs, or a comment. Unless noted, the call rests on the fitted dose curve; in most records, active means well fitted rising curve with a large enough effect; inconclusive means small, poorly fitted or top-dose-only effect; inactive means no such curve, though single readings can be large or run the other way. Potency means the concentration at half of the fitted maximal effect.

SMILES	RE007 growth inh	Cruzain inh Det	SARS PLP yeast	NS1 function inh	Cruzain inh noDet	MARV entry inh	StopGo reporter	LASV entry inh
CC1(C)CC(=O)C(C(O)c2cccc([N+](=O)[O-])c2)C(C)(C)N1 (configuration not stated)	27%	nt	0%	9%	nt	nt	-7%	nt
O=C(CN(C(=O)CCC(=O)Nc1ccccn1)c1ccc(F)cc1)NCCc1ccccc1	8%	nt	-1%	-3%	nt	-15%[46.1 µM]	-13%	nt
Cc1ccc(S(=O)(=O)N(C)C)cc1NC(=O)CN1C(=O)NC2(CCCc3ccccc32)C1=O (configuration not stated)	15%	0.1%	14%	-8%	2%	?	-24%	4%
COc1cccc(NC(=O)CSc2nnc(CNC(=O)c3ccccc3)n2C)c1	8%	3.6%	nt	-5%	6%	?	-18%	-14%
CCCNC(=O)C(=O)Nc1ccc2c(c1)N(S(=O)(=O)c1cccs1)CCC2	6%	nt	1%	nt	nt	?	12%	?
CC1CCc2c(sc(NC(=O)C3c4ccccc4Oc4ccccc43)c2C(=O)OC(C)C)C1 (configuration not stated)	nt	-1.5%	nt	nt	-5%	0%[46.1 µM]	-12%	29%[46.1 µM]
Cc1ccc(C)c(NC(=S)N(CCN(C)C)C(C)c2ccccn2)c1 (configuration not stated)	-22%	nt	4%	nt	nt	5%[46.1 µM]	-6%	13%
COCCn1c(C)cc(C(=O)CSc2ncn[nH]2)c1C	13%	0.7%	6%	0%	17%	?	51%[activator]	-6%
CCC(Sc1nc2ccccc2o1)C(=O)O (configuration not stated)	-6%	nt	-1%	nt	nt	3%[46.1 µM]	2%	11%[46.1 µM]
O=C(OCCN1CCCC1=O)c1cc(F)c(F)c(F)c1F	-6%	-3.1%	8%	4%	-3%	?	-28%	16%
O=C(CCN1C(=O)/C(=C/c2cccs2)SC1=S)Nc1cccc(C(=O)O)c1	-4%	nt	1%	11%	nt	1%[46.1 µM]	11%	-2%
COc1ccc(-c2csc(-c3cc4ccccc4oc3=N)n2)cc1	1%	-13%	23%	12%	?	-2%	14%	2%
O=C(COCc1cc(-c2ccc3c(c2)OCO3)on1)N1CCN(c2ccccc2)CC1	-20%	nt	-2%	-17%	nt	nt	0%&0%	8%[46.1 µM]
CSc1c(CC(=O)NCCCO)n(Cc2ccccc2)c2ccccc12	0%	nt	-4%	-6%	nt	nt	?	nt
O=S(=O)(Cc1ccccc1Cl)c1ncn[nH]1	2%	nt	1%	1%	nt	-2%[46.1 µM]	-1%	0%
CCN(c1ccc(NC(=O)CSc2ccc3c(c2)OCCO3)cc1)C(C)C	-29%	nt	3%	nt	nt	-8%	-15%	-23%
CCc1cc2c(=O)c(-c3cscn3)coc2cc1OC	nt	3.1%	-4%	-6%	7%	-3%	nt	nt
O=C(NC1CCCCCC1)c1cccnc1Sc1ccc(Cl)cc1	20%	-6.1%	6%	8%	10%	-13%	-26%	-2%
Cc1ccc(C)c(NC(=O)CN(C)C(=O)c2ccccc2OCc2ccccc2Cl)c1	31%	nt	1%	nt	nt	?	-17%	-23%
Cc1ccc(C(C(=O)NC2CCCCC2)N(CC2CCCO2)C(=O)CNC(=O)c2cccs2)cc1 (configuration not stated)	9%	1.6%	2%	14%	0%	?	11%	4%
Cc1nn(C(=O)CCCn2cc([N+](=O)[O-])cn2)c(C)c1Cl	0%	nt	-1%	nt	nt	7%[46.1 µM]	-13%	1%
CCc1cc2c(=O)[nH]c(CC(N)=O)nc2s1	2%	nt	0%	0%	nt	0%	-12%	26%[46.1 µM]
CCOc1cc(C(=O)CSc2nnc(CNc3ccc(Cl)cc3)o2)ccc1NC(=O)CC	-18%	-0.3%	14%	?	-29%	?	?	?
COc1ccc(Cc2noc(CN(C)Cc3ccc(-n4cccn4)cc3)n2)cc1OC	-2%	nt	-1%	-6%	nt	nt	?	nt
COc1ccc(C2/C=C\CN(C(=O)Oc3ccc(C(F)(F)F)cc3)CC(=O)N2Cc2ccc(F)cc2)cc1 (configuration not stated)	-15%	nt	-7%	-2%	nt	nt	-18%	nt
CCOC(=O)c1cc(-c2ccc(OC)c(S(=O)(=O)Nc3ccc(OC)cc3OC)c2)on1	nt	-1.9%	nt	nt	?	nt	32%[activator]	5%[46.1 µM]
CCOC(=O)N1CCN(Cc2nc3cc(NC(=O)CC)ccc3n2C(C)C)CC1	nt	-0.4%	nt	nt	4%	-30%[46.1 µM]	?	-24%[46.1 µM]
O=C1c2ccccc2-c2onc3ccc(NCCCn4ccnc4)c1c23	14%	-15%	-9%	-6%	2%	?	nt	-21%
Cc1cc(C(=O)COC(=O)c2cc(O)c3ccccc3c2O)c(C)n1CC1CCCO1 (configuration not stated)	-16%	nt	-13%	nt	nt	?	-28%	7%
COc1ccc(NC(=O)CCCC(=O)OCC(F)(F)C(F)F)cc1	0%	2.3%	-5%	-88%	-4%	7%	-12%	20%
CC1Cc2ccccc2N1S(=O)(=O)c1nnc(NC(=O)c2ccccc2Br)s1 (configuration not stated)	nt	-0.9%	nt	nt	7%	nt	?	10%[46.1 µM]
Cc1cc(C)c(S(=O)(=O)c2ccc(Cl)cc2)c(=O)[nH]1	16%	nt	1%	3%	nt	7%	24%	15%
CC[C@]12c3[nH]c4cc(CCC(=O)N(C)C)ccc4c3CCN1C(=O)[C@@H](CC(=O)NCc1ccc(OC)c(OC)c1)C[C@@H]2C(=O)N1CCN(C(=O)C2CC2)CC1	12%	nt	4%	nt	nt	3%	-10%	nt
CN(C)CCNc1oc(/C=C/c2ccccc2)nc1C#N	-5%	-29%	23%	6%	25µM*	?	25%	-3%
O=C1N=C(N2CCOCC2)S/C1=C\c1ccncc1	-3%	nt	2%	-1%	nt	-13%[46.1 µM]	-26%	-29%[46.1 µM]
COCCN(C(=O)C1CC1)c1nnc(-c2ccc(C)cc2)s1	-9%	-10%	0%	-11%	30%	5%	31%[activator]	7%
COc1ccc(C(=O)N2CCN(C)C(=O)[C@@H]2C)cc1OC1CCN(C(C)=O)CC1	1%	nt	2%	-1%	nt	17%	-19%	?
CCOc1ccc2nc(N3CCC(C(=O)Nc4nnc(CC)s4)CC3)sc2c1	-6%	1.9%	-1%	2%	-8%	nt	25%	nt
O=C(CCCc1ccccc1)Nc1cccnc1	12%	7.2%	0%	-8%	-2%	?	18%	21%
Cc1nn(Cc2ccccc2)c(C)c1NC(=O)c1cc2nc(-c3ccco3)cc(C(F)(F)F)n2n1	0%	-9.5%	-5%	-30%	?	-6%&-6%	0%	-13%
Cc1ccc(Cl)cc1N1CCN(S(=O)(=O)c2cc(Br)cc3c2N(C(=O)C2CC2)CC3)CC1	nt	1.1%	nt	nt	-4%	13%[46.1 µM]	26%	15%[46.1 µM]
O=C(Cn1nnc(-c2cccc(C(F)(F)F)c2)n1)N1CCCCCC1	-2%	-1.7%	9%	-7%	3%	?	2%	-17%
CCOc1ccc(-n2c(=O)c3c4c(sc3n(Cc3cccc(C)c3)c2=O)CCCC4)cc1	nt	0.7%	nt	nt	-2%	4%[46.1 µM]	?	-6%[46.1 µM]
NC(=O)N/N=C/c1cc(Br)ccc1OC(=O)c1ccccc1	3%	0.2%	13%	5%	-3%	-9%	-29%	-22%
C[C@H](N)c1nnc(SCC(=O)c2ccc(Cl)cc2)o1	6%	-1.3%	11%	-3%	-6%	-5%	10%	-5%
COc1ccc(CCC(=O)Nc2ccc(-c3noc(-c4ccc(OC)c(OC)c4)n3)cc2)cc1	12%	2.4%	1%	-5%	5%	?	14%	16%
CCc1ccc(OC(C)c2nnc(SCC(=O)Nc3ncccc3C)n2C)cc1 (configuration not stated)	5%	-3.9%	19%	-12%	12%	-28%	-29%	?
COc1ccc(C(C(=O)NC2CCCCC2)N(C(=O)c2sc(C)nc2C)c2ccccc2)cc1 (configuration not stated)	-9%	-2.0%	-3%	2%	1%	-1%[46.1 µM]	-10%	?
O=C(CCNC(=O)c1ccccc1Cl)NCC(c1ccc(F)cc1)N1CCOCC1 (configuration not stated)	13%	nt	0%	nt	nt	-5%	19%	-6%[46.1 µM]
O=S(=O)(NCC(Nc1ccccc1)c1ccccc1)c1ccc(Cl)cc1 (configuration not stated)	5%	-7.7%	3%	25%	?	?	-23%	?
CC(C)C(=O)Nc1ccc(NC(=S)NC(=O)c2ccccc2F)cc1	-6%	nt	-1%	1%	nt	-15%	13%	?
Cc1ccc2c(n1)CC(C)(C)CC2=O	38%	4.9%	3%	-7%	-9%	4%	-1%	8%
Cc1ccc(-c2cc(C(F)F)nc(NCc3cccs3)n2)cc1	-2%	-7.9%	-19%	-8%	12%	5%	-5%	?
Cc1cc(=O)[nH]c2ccc(S(=O)(=O)Nc3ccccc3)cc12	-5%	nt	-5%	-3%	nt	-27%[46.1 µM]	10%	?
CC(C)C(=O)Nc1ccc(C(=O)N/N=C/c2cc(Br)cc(Br)c2O)cc1	8%	nt	2%	3%	nt	?	-13%	?
Cc1cc(C(=O)COC(=O)c2csc3c2CCCC3)c(C)n1C	18%	-2.3%	-3%	11%	1%	23%	0%	0%
FC(F)Oc1ccc(NC(=S)NCc2cccnc2)cc1	-9%	nt	-10%	nt	nt	-3%[46.1 µM]	47%[activator]	nt
O=C(NCc1ccc2c(c1)OCO2)Nc1cccc(Cl)c1	26%	nt	9%	-19%	nt	nt	59%[activator]	nt
CCN1CCN(c2nc(-c3ccccc3)c3ccccc3n2)CC1	-12%	nt	0%	0%	nt	?	6%	?
CC(C)NC(=O)CSc1nnc(C2CC2)n1-c1ccccc1	-13%	1.5%	-3%	9%	-5%	-21%	-1%	0%
CCCNC(=O)CN1C(=O)c2cccnc2Sc2ccccc21	nt	-2.2%	nt	nt	1%	nt	19%	17%[46.1 µM]
CCOc1ccccc1CN1CCN(S(=O)(=O)CC)CC1	0%	6.4%	1%	-10%	7%	8%	nt	?
CC1(CCc2ccccc2)NC(=O)N(Cc2cc([N+](=O)[O-])cc3c2OCOC3)C1=O (configuration not stated)	-11%	nt	-1%	nt	nt	-3%[46.1 µM]	-16%	-9%[46.1 µM]
